Screening data as filed in PubChem.
PKD1 inh = blocks activity of human protein kinase D1. AID 797. 0.056% of 200,000 active. inhibition, %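 (about 10 µM by stock and volumes)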. PKD1 kinase fluorescence polarization assay. Q15139;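 active = inhibition of 50% or more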;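 note: controls were vehicle for no effect and a reference inhibitor for full effect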
RGS16-Gao = regulators of human RGS16-Galphao interaction; binding response (% of control), % at 10 µM; 0.38% of 220,000 active; bead-based flow cytometry RGS16-Galphao binding, fluorescence; actives lie on both sides; O15492+P09471; AID 1441;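 active = below 25% or above 175%, edge rows of some plates excepted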;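 note: Galphao activated by GDP with aluminum fluoride before binding; 100% = wells without compound and 0% = beads without RGS; some results beyond the cut were filed as inactive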
Target sequence (O15492 whole entry, looked up): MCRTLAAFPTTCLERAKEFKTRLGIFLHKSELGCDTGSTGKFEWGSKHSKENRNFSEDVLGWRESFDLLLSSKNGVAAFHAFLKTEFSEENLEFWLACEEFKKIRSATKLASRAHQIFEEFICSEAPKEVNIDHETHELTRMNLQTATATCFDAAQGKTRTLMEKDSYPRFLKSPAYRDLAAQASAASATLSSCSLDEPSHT
Target sequence (P09471 whole entry, looked up): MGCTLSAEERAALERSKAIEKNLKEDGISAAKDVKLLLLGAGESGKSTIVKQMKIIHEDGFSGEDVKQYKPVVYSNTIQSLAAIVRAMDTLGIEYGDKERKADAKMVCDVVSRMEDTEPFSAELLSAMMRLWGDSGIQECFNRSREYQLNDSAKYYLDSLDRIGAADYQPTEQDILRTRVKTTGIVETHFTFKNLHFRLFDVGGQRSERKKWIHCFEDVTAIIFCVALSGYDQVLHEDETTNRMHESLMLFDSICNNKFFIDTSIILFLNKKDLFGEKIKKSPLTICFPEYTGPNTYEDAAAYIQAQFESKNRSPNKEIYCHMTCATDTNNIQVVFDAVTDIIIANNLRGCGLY
INS promoter inh = TRM-6 insulin promoter activity inhibition; TRM-6 cells (human fetal islet line), insulin promoter-eGFP reporter, imaging; reporter expression induced with tamoxifen; inhibition, % at 2 µM; 0.9% of 130,000 active;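 active = inhibition above the mean plus 3 SD, with well images judged a real hit on visual review, cut at about 60% in these data, passing the limit was not always enough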
GALR2 ag = agonists of human galanin receptor 2 (GALR2) | O43603 | GALR2-expressing cells, agonist activation read-out | activation, %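 (tested at 5 µM)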 | 0.48% of 140,000 active | AID 803;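 active = above mean plus 3 SD of all compounds, about 5% in these data, not always enough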;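 note: 0% = vehicle buffer wells and 100% = reference agonist at full effect; tested in CHO reporter cells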
Target sequence (O43603 whole entry, looked up): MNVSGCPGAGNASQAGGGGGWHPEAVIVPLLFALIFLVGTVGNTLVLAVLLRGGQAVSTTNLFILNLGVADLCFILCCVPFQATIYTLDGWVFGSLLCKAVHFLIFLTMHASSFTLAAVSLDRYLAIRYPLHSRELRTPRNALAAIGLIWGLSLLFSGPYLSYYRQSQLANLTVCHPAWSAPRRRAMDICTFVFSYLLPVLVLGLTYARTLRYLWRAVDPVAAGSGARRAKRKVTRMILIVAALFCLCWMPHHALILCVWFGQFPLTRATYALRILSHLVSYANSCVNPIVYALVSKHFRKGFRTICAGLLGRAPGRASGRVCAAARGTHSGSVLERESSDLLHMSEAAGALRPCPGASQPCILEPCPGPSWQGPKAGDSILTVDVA
HSV replic up = increases HSV replication in cells; HSV replication augmentation in cells, fold increase; AID 1956; maximum fold increase; 0.005% of 220,000 active;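 active = peak rise of 1.5-fold or more in the series; tested in PC3 cells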;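 note: first round at 10 µM; read as green reporter fluorescence; hits show the peak of a series up to 25 µM; 1 = signal of infected wells without compound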
INS promoter inh cell count = also measured in INS promoter inh; calls as there; normalized cell count, %; measured here: cell count, toxicity; reference of the scale not given here;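 cells exposed to compound for 48 h; stained nuclei by imaging scaled within each plate; lower means fewer cells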
HSV replic up primary fold = also measured in HSV replic up; calls as there; fold increase; compound at 10 µM; measured here: primary screen fold increase 10 uM; tested in PC3 cells;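 GFP signal in the first replicate; 1 = infected wells without compound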
* = called active by the depositor. Compounds as they come; any-hit rate near 1.2%.

How did COC(=O)/C=C1\SC(=Nc2ccc(OC)cc2)NC1=O do in these assays?
PKD1 inh: -5; RGS16-Gao: 95; HSV replic up: inactive; HSV replic up primary fold: 0.88

What do the screens show for `O=C(CCc1nnc(CCCCc2ccccc2)o1)N1CCC(N2CCCC2)CC1`?
PKD1 inh: -4; RGS16-Gao: 104; INS promoter inh: 45; HSV replic up: inactive; INS promoter inh cell count: 115; HSV replic up primary fold: 0.87

Results for COc1ccc(-c2cc(C3CCN(Cc4ccc([N+](=O)[O-])cc4)CC3)[nH]n2)cc1 ?
PKD1 inh: -4; RGS16-Gao: 107; INS promoter inh: 0; HSV replic up: inactive; INS promoter inh cell count: 86; HSV replic up primary fold: 0.88

What do the screens show for `O=[N+]([O-])c1ccc(Sc2ccc(Cl)c(Cl)c2)nc1`?
PKD1 inh: 7; RGS16-Gao: 104; GALR2 ag: -1.1; HSV replic up: inactive; HSV replic up primary fold: 0.85

Results for O=C(CCCO)c1ccc2c(c1)OCCO2 ?
PKD1 inh: -2; RGS16-Gao: 98; INS promoter inh: 35; GALR2 ag: -0.4; HSV replic up: inactive; INS promoter inh cell count: 100; HSV replic up primary fold: 0.75

How did CCN1CCN(c2nc3c(c(=O)[nH]c(=O)n3C)n2CCCSc2ncccn2)CC1 do in these assays?
PKD1 inh: -3; RGS16-Gao: 103; INS promoter inh: 13; GALR2 ag: -1.4; HSV replic up: inactive; INS promoter inh cell count: 84; HSV replic up primary fold: 1

What do the screens show for `O=C(O)c1cccc(NCc2cccnc2)c1`?
PKD1 inh: 2; RGS16-Gao: 94; INS promoter inh: 16; GALR2 ag: 0.0; HSV replic up: inactive; INS promoter inh cell count: 150; HSV replic up primary fold: 1.1

Results for Cc1nn(C)cc1C=NCCOCc1ccccc1 ?
PKD1 inh: -10; RGS16-Gao: 95; INS promoter inh: -11; GALR2 ag: -4.9; HSV replic up: inactive; INS promoter inh cell count: 201; HSV replic up primary fold: 0.87

Results for COCC(C)n1c(C)cc(C(=O)Cn2nc(C(=O)O)c3ccccc3c2=O)c1C (stereo unspecified) ?
PKD1 inh: 3; RGS16-Gao: 104; INS promoter inh: 58; HSV replic up: inactive; INS promoter inh cell count: 149; HSV replic up primary fold: 0.99

Results for CCCCSc1nnc(CCCCCNC(=O)OC(C)(C)C)o1 ?
PKD1 inh: 3; RGS16-Gao: 112; GALR2 ag: -0.8; HSV replic up: inactive; HSV replic up primary fold: 1

Results for C=CCn1cc(C(=O)NCc2ccc3c(c2)OCO3)c(=O)c2cc(S(=O)(=O)N(CC)CC)ccc21 ?
PKD1 inh: 6; RGS16-Gao: 107; INS promoter inh: -61; GALR2 ag: 0.2; HSV replic up: inactive; INS promoter inh cell count: 64; HSV replic up primary fold: 0.8

Results for CC(C)CNC(=O)c1c(F)c(F)c(F)c(F)c1F ?
PKD1 inh: -1; RGS16-Gao: 105; HSV replic up: inactive; HSV replic up primary fold: 0.82

Results for CCOP(=O)(OCC)/C(C#N)=C/c1c[nH]c2ccccc12 ?
RGS16-Gao: 108; HSV replic up: inactive; HSV replic up primary fold: 0.85

What do the screens show for `O=C(Nc1ccc(OC(=O)c2cccs2)cc1)c1ccco1`?
PKD1 inh: 2; RGS16-Gao: 104; INS promoter inh: -6; GALR2 ag: 0.9; HSV replic up: inactive; INS promoter inh cell count: 66; HSV replic up primary fold: 0.81

Results for Cc1nc2ccc(NC(=O)c3nn(C(C)C)c(=O)c4ccccc34)cc2s1 ?
PKD1 inh: 7; RGS16-Gao: 86; GALR2 ag: 1.0; HSV replic up: inactive; HSV replic up primary fold: 1.1

Results for COc1cccc(C2NC(=O)NC(C)=C2C(=O)Nc2cccc(C)c2C)c1 (stereo unspecified) ?
PKD1 inh: -10; RGS16-Gao: 97; GALR2 ag: -2.2; HSV replic up: inactive; HSV replic up primary fold: 1.1

What do the screens show for `CC(C)Oc1ccc(C(=O)NCC(=O)O)cc1`?
RGS16-Gao: 99; HSV replic up: inactive; HSV replic up primary fold: 0.95

Results for Cc1ccc(C(=O)C2C(c3cccs3)NC(=O)NC2(O)C(F)(F)F)cc1 (stereo unspecified) ?
PKD1 inh: -4; RGS16-Gao: 110; INS promoter inh: 11; GALR2 ag: 0.0; HSV replic up: inactive; INS promoter inh cell count: 135; HSV replic up primary fold: 1.1

How did [O-][n+]1cccc2c(Br)cc(Br)c(O)c21 do in these assays?
PKD1 inh: 2; RGS16-Gao: 104; INS promoter inh: 64; HSV replic up: inactive; INS promoter inh cell count: 174; HSV replic up primary fold: 1.2

Results for CCn1c(C(C)NC(=O)Cc2ccccc2)nc2ccccc21 (stereo unspecified) ?
PKD1 inh: -5; RGS16-Gao: 145; INS promoter inh: -29; GALR2 ag: -2.1; HSV replic up: inactive; INS promoter inh cell count: 124; HSV replic up primary fold: 0.87

How did CCS(=O)(=O)c1ccc2oc(Nc3ccccc3Br)nc2c1 do in these assays?
RGS16-Gao: 100; HSV replic up: inactive; HSV replic up primary fold: 0.87

How did Cn1ncc(Cl)c(Oc2ccc(Cl)cc2)c1=O do in these assays?
PKD1 inh: 3; RGS16-Gao: 100; INS promoter inh: -20; GALR2 ag: -1.8; HSV replic up: inactive; INS promoter inh cell count: 141; HSV replic up primary fold: 0.83

Results for Cc1ccc(N(CC(=O)Nc2ccc(-c3nc4ccc(C)cc4s3)cc2)S(C)(=O)=O)cc1 ?
PKD1 inh: 3; RGS16-Gao: 110; INS promoter inh: -23; GALR2 ag: -1.1; HSV replic up: inactive; INS promoter inh cell count: 74; HSV replic up primary fold: 1.1

What do the screens show for `COCCNC(=O)C(c1cccc(OC)c1)N(C(=O)Cn1nnc2ccccc21)c1cccnc1` (stereo unspecified)?
PKD1 inh: -25; RGS16-Gao: 106; GALR2 ag: -0.2; HSV replic up: inactive; HSV replic up primary fold: 0.95

What do the screens show for `COc1ccccc1-c1nnc2sc(COc3ccc(F)cc3)nn12`?
PKD1 inh: 14; RGS16-Gao: 110; GALR2 ag: -0.5

How did N#CC(C#N)=C1C=C2C=C(N3CCCCCC3)CCC2CC1 (stereo unspecified) do in these assays?
PKD1 inh: -38; RGS16-Gao: 139; INS promoter inh: -223; GALR2 ag: 0.3; INS promoter inh cell count: 123

How did Cc1cc(C(=S)N2CCOCC2)c(C)n1-c1ccc(Cl)cc1 do in these assays?
PKD1 inh: -5; RGS16-Gao: 92; INS promoter inh: 29; GALR2 ag: -1.9; HSV replic up: inactive; INS promoter inh cell count: 55; HSV replic up primary fold: 1

How did C=CCc1c(C)nc(SC)nc1Nc1ccccc1 do in these assays?
PKD1 inh: 3; RGS16-Gao: 105; INS promoter inh: -408; GALR2 ag: -1.9; HSV replic up: inactive; INS promoter inh cell count: 50; HSV replic up primary fold: 0.81

How did Cc1cc(C)n(-c2nc3ccccc3nc2N2CCN(S(=O)(=O)c3ccc(F)c(C)c3)CC2)n1 do in these assays?
PKD1 inh: -6; RGS16-Gao: 99; GALR2 ag: -1.7; HSV replic up: inactive; HSV replic up primary fold: 0.69

Results for Oc1c(Cl)cc(Cl)c2c1NCCC2 ?
PKD1 inh: -11; RGS16-Gao: 101; INS promoter inh: 18; GALR2 ag: -0.4; INS promoter inh cell count: 125

Of the compounds above, 2 contain a cyano group:
Results for CCOP(=O)(OCC)/C(C#N)=C/c1c[nH]c2ccccc12 ?
RGS16-Gao: 108; HSV replic up: inactive; HSV replic up primary fold: 0.85

How did N#CC(C#N)=C1C=C2C=C(N3CCCCCC3)CCC2CC1 (stereo unspecified) do in these assays?
PKD1 inh: -38; RGS16-Gao: 139; INS promoter inh: -223; GALR2 ag: 0.3; INS promoter inh cell count: 123

Later entries.
What do the screens show for `CCSc1nc(C)c(CC)c(C)c1C(N)=O`?
PKD1 inh: 4; RGS16-Gao: 99; INS promoter inh: -192; GALR2 ag: -2.0; HSV replic up: inactive; INS promoter inh cell count: 117; HSV replic up primary fold: 0.97

Results for COc1ccc(NC(=S)c2ccccc2)cc1 ?
PKD1 inh: -1; RGS16-Gao: 101; INS promoter inh: -7; GALR2 ag: -1.3; HSV replic up: inactive; INS promoter inh cell count: 116; HSV replic up primary fold: 0.92

Results for CC1(C)Cn2c(nnc2-c2ccccc2)S1 ?
PKD1 inh: -6; RGS16-Gao: 104; INS promoter inh: 10; GALR2 ag: 0.0; HSV replic up: inactive; INS promoter inh cell count: 117; HSV replic up primary fold: 0.77

What do the screens show for `CN1CCN(C(=S)C(=O)NCc2ccccc2)CC1`?
PKD1 inh: -1; RGS16-Gao: 105; HSV replic up: inactive; HSV replic up primary fold: 0.77

Results for O=C(NC(NC(=S)Nc1ccccc1C(=O)O)C(Cl)(Cl)Cl)c1ccccc1 (stereo unspecified) ?
PKD1 inh: -7; RGS16-Gao: 98; INS promoter inh: 11; HSV replic up: inactive; INS promoter inh cell count: 99; HSV replic up primary fold: 0.84

What do the screens show for `CCCCNC(=O)NNc1nc(Cl)cc(C)c1C#N`?
PKD1 inh: -2; RGS16-Gao: 94; INS promoter inh: -25; HSV replic up: inactive; INS promoter inh cell count: 126; HSV replic up primary fold: 0.9

What do the screens show for `COc1cc(NC(=O)Cn2nc(Cc3cccnc3)c3ccccc3c2=O)cc(OC)c1OC`?
PKD1 inh: -5; RGS16-Gao: 103; GALR2 ag: -0.2; HSV replic up: inactive; HSV replic up primary fold: 0.84

How did CCn1c(SCC(=O)Nc2nc3ccc(OC)cc3s2)nc2c1c(=O)n(C)c(=O)n2C do in these assays?
PKD1 inh: 18; RGS16-Gao: 97; INS promoter inh: -37; GALR2 ag: 0.9; HSV replic up: inactive; INS promoter inh cell count: 111; HSV replic up primary fold: 0.99

Results for COc1ccc(CCCc2n[nH]c(=S)o2)cc1C ?
PKD1 inh: 0; RGS16-Gao: 98; INS promoter inh: -62; INS promoter inh cell count: 87

Results for O=C(CSCC(=O)N1CCOCC1)Nc1ccccc1 ?
PKD1 inh: -11; RGS16-Gao: 99; GALR2 ag: -0.1; HSV replic up: inactive; HSV replic up primary fold: 0.9

How did CCOC(=O)C1CCN(S(=O)(=O)c2ccc(Br)c(OCC)c2)CC1 do in these assays?
PKD1 inh: -8; RGS16-Gao: 108; INS promoter inh: -32; GALR2 ag: -3.1; HSV replic up: inactive; INS promoter inh cell count: 164; HSV replic up primary fold: 0.88

What do the screens show for `CC1CCCN(c2ccc(C(=O)OCn3nnc4ccccc4c3=O)cc2[N+](=O)[O-])C1` (stereo unspecified)?
PKD1 inh: 0; RGS16-Gao: 185; GALR2 ag: -1.7; HSV replic up: inactive; HSV replic up primary fold: 1.2

Results for CNC(=O)c1cc2c(ccc3ccccc32)o1 ?
PKD1 inh: 3; RGS16-Gao: 97; INS promoter inh: 12; HSV replic up: inactive; INS promoter inh cell count: 111; HSV replic up primary fold: 1.1

What do the screens show for `Cc1ccc(Cn2cccc(NC(=O)NCc3ccccc3)c2=O)cc1`?
PKD1 inh: -3; RGS16-Gao: 100; INS promoter inh: 12; GALR2 ag: -3.2; HSV replic up: inactive; INS promoter inh cell count: 112; HSV replic up primary fold: 0.95

Results for CCCc1nn(C)c(C(=O)Nc2ccc(C)c(C)c2)c1Cl ?
PKD1 inh: -8; RGS16-Gao: 93; INS promoter inh: -9; GALR2 ag: -0.4; HSV replic up: inactive; INS promoter inh cell count: 182; HSV replic up primary fold: 0.91

How did COc1ccc(N(CC(=O)NCc2ccccc2)C(=O)Cn2nnc(-c3ccccc3F)n2)cc1OC do in these assays?
PKD1 inh: -4; RGS16-Gao: 91; HSV replic up: inactive; HSV replic up primary fold: 0.85

What do the screens show for `Cc1ccc(NC(=O)COC(=O)c2ccnn2C)cc1`?
PKD1 inh: -6; RGS16-Gao: 100; GALR2 ag: -0.5; HSV replic up: inactive; HSV replic up primary fold: 0.78

How did O=C(O)c1ccc(N/N=C/c2cc3ccccc3nc2Cl)cc1 do in these assays?
RGS16-Gao: 110; HSV replic up: inactive; HSV replic up primary fold: 0.96

Retrieved by structure from the entries so far (4):
What do the screens show for `Cc1ccc(Cn2cccc(NC(=O)NCc3ccccc3)c2=O)cc1`?
PKD1 inh: -3; RGS16-Gao: 100; INS promoter inh: 12; GALR2 ag: -3.2; HSV replic up: inactive; INS promoter inh cell count: 112; HSV replic up primary fold: 0.95

How did COc1ccc(N(CC(=O)NCc2ccccc2)C(=O)Cn2nnc(-c3ccccc3F)n2)cc1OC do in these assays?
PKD1 inh: -4; RGS16-Gao: 91; HSV replic up: inactive; HSV replic up primary fold: 0.85

How did O=C(O)c1ccc(N/N=C/c2cc3ccccc3nc2Cl)cc1 do in these assays?
RGS16-Gao: 110; HSV replic up: inactive; HSV replic up primary fold: 0.96

What do the screens show for `CC1CCCN(c2ccc(C(=O)OCn3nnc4ccccc4c3=O)cc2[N+](=O)[O-])C1` (stereo unspecified)?
PKD1 inh: 0; RGS16-Gao: 185; GALR2 ag: -1.7; HSV replic up: inactive; HSV replic up primary fold: 1.2
